Vaccinia inh: blocks a specific stage of Vaccinia orthopoxvirus infection, primary screen, cell-based, single point. Vaccinia-infected cells, mCherry/Venus stage reporter fluorescence; active compounds read low; some inactives read as strong as hits. activity change (mCherry), % (test concentration not listed). 0.01% of 89,000 active. AID 1053133, 2014;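 active = mCherry past -33% and 40 or more points under the early reporter, replicates agreeing; inconclusive = past -33% without that gap or agreement; tested in A549 cells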;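 also: scaled between vehicle wells and reference inhibitor wells; 23 nL library stock went into each well; one replicate is shown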
Vaccinia inh Venus: second read-out of Vaccinia inh, no call of its own (marks repeat the call); activity change (Venus), %; measured here: Venus reporter, other viral stage;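 negative = less Venus signal; first of two replicates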
* marks the source's active call; other numbers are inactive results; u = inconclusive; x = no result given. A portion of the library, so the mix of outcomes need not match the whole.

Values in the order – Vaccinia inh	Vaccinia inh Venus
CCCNC(=O)N(C)C[C@H]1Oc2ncc(-c3ccc(C(=O)N(C)C)cc3)cc2C(=O)N([C@@H](C)CO)C[C@@H]1C
  20.6	-0.5
C[C@@H]1CN([C@@H](C)CO)C(=O)c2cccc(NC(=O)C3CCCCC3)c2O[C@H]1CN(C)S(=O)(=O)c1ccccc1
  -13.7	-8.0
OC[C@@H]1[C@@H](c2ccc(C#Cc3cccnc3)cc2)[C@@H]2CN(Cc3ccccc3F)CCCCN12
  -17.2	-34.0
C[C@@H]1CN([C@@H](C)CO)C(=O)c2cc(NC(=O)c3ccncc3)ccc2O[C@@H]1CN(C)C(=O)Nc1ccccc1
  13.5	6.9
N#C[C@@H]1[C@@H](c2ccc(C3=CCCC3)cc2)[C@@H](CO)N1C(=O)NC1CCCC1
  11.7	7.2
O=C(Nc1cccc(F)c1)N1CC(=O)N2[C@H](CO)[C@@H](c3ccc(Br)cc3)[C@H]2C1
  -13.9	-25.0
CCCNC(=O)[C@H]1[C@H](CO)[C@H]2Cn3c(cccc3=O)[C@@H]1N2CCC(F)(F)F
  15.3	19.6
C[C@@H]1CN([C@@H](C)CO)C(=O)c2cc(-c3cccc(F)c3)cnc2O[C@H]1CN(C)C(=O)Nc1cc(F)ccc1F
  -17.1	-4.2
Cc1noc(C)c1S(=O)(=O)Nc1ccc2c(c1)C(=O)N([C@H](C)CO)C[C@H](C)[C@@H](CN(C)S(=O)(=O)c1ccc(Cl)cc1)OCCCC[C@H](C)O2
  u	x
Cc1noc(C)c1NC(=O)N(C)C[C@H]1Oc2ccc(NC(=O)Nc3ccc(F)cc3)cc2C(=O)N([C@@H](C)CO)C[C@H]1C
  9.5	7.8
CCC(=O)N1[C@@H](CO)[C@@H]2c3ccccc3N(S(=O)(=O)c3ccccc3C)C[C@@H]21
  -0.4	-6.3
C[C@H]1CN([C@@H](C)CO)C(=O)c2cccc(NC(=O)NC3CCCCC3)c2O[C@H]1CN(C)C(=O)Nc1cccc2ccccc12
  -18.8	-16.0
Cc1ccc(S(=O)(=O)N(C)C[C@H]2OCCCC[C@@H](C)Oc3ccc(NC(=O)CCCCCC(=O)Nc4ccccc4N)cc3C(=O)N([C@H](C)CO)C[C@@H]2C)cc1
  4.6	6.0
C[C@@H]1CCCCO[C@H](CN(C)C(=O)Cc2ccccc2)[C@@H](C)CN([C@H](C)CO)C(=O)c2cc(NC(=O)Nc3ccc4c(c3)OCO4)ccc2O1
  21.4	17.0
CC(C)NC(=O)Nc1ccc2c(c1)CC(=O)N([C@@H](C)CO)C[C@@H](C)[C@@H](CN(C)Cc1ccc(C(=O)Nc3ccccc3N)cc1)O2
  -7.4	-6.4
O=C(Nc1cccc(F)c1)N1CCCCN2[C@H](CO)[C@H](c3ccc(C#Cc4ccccc4)cc3)[C@H]2C1
  u	x
Cc1ccc(S(=O)(=O)N(C)C[C@H]2Oc3ccc(NC(=O)C4CCCCC4)cc3CC(=O)N([C@@H](C)CO)C[C@H]2C)cc1
  -20.2	-15.8
COc1ccc2c3c(n(C)c2c1)[C@@H](CO)N(Cc1ccccc1Cl)CC31CN(C(=O)CC2CC2)C1
  -10.2	-13.2
C[C@@H]1CN([C@H](C)CO)C(=O)c2cc(NS(=O)(=O)c3cccs3)ccc2O[C@@H]1CN(C)Cc1ccc2c(c1)OCO2
  15.7	9.5
O=C(Nc1ccc(C(F)(F)F)cc1)N[C@H]1CC[C@@H](CCn2cc(C3(O)CCCC3)nn2)O[C@@H]1CO
  -4.4	-5.6
COc1cccc(S(=O)(=O)N(C)C[C@@H]2Oc3ncc(C#Cc4ccc(F)cc4)cc3C(=O)N([C@H](C)CO)C[C@@H]2C)c1
  u	x
CCCNC(=O)N(C)C[C@@H]1Oc2ncc(-c3ccccc3)cc2C(=O)N([C@@H](C)CO)C[C@H]1C
  19.9	8.3
CC(C)NC(=O)Nc1ccc2c(c1)C(=O)N([C@H](C)CO)C[C@@H](C)[C@H](CN(C)C(=O)Nc1ccc(C(F)(F)F)cc1)OCCCC[C@@H](C)O2
  -33.4	-30.1
COCC(=O)Nc1ccc2c(c1)OC[C@H](C)N(Cc1ccccc1)C[C@@H](C)[C@@H](OC)CN(C)C2=O
  -17.3	-20.3
O=C(C1CCOCC1)N1CC(=O)N2[C@@H](CO)[C@H](c3ccc(C4=CCCC4)cc3)[C@@H]2C1
  22.9	-6.4
COC(=O)C[C@@H]1C[C@@H]2c3cc(NC(=O)CC4CC4)ccc3O[C@@H]2[C@@H](CO)O1
  8.4	7.9
C[C@H]1CN([C@@H](C)CO)C(=O)c2cccc(NC(=O)Nc3ccc4c(c3)OCO4)c2O[C@@H]1CN(C)C(=O)NC1CCCCC1
  6.0	1.7
CO[C@@H]1CN(C)C(=O)c2ccc(NS(=O)(=O)c3ccc(Cl)cc3)cc2OC[C@H](C)N(C)C[C@H]1C
  4.9	15.3
C[C@H](CO)N1C[C@H](C)[C@@H](CN(C)C(=O)Nc2ccccc2)Oc2ccc(NS(=O)(=O)c3ccccc3)cc2CC1=O
  13.2	7.9
O=C(C[C@@H]1CC[C@H]2[C@@H](COC[C@H](O)CN2Cc2ccc3c(c2)OCO3)O1)Nc1ccc(-c2ccccc2)cc1
  u	x
CNC[C@@H]1Oc2ccc(NS(=O)(=O)c3cn(C)cn3)cc2CC(=O)N([C@H](C)CO)C[C@@H]1C
  0.2	-3.3
C[C@@H]1CN([C@H](C)CO)C(=O)c2cc(NS(=O)(=O)c3cccs3)ccc2O[C@@H]1CN(C)C(=O)Nc1cccc2ccccc12
  18.9	15.4
COc1ccc(S(=O)(=O)Nc2ccc3c(c2)C(=O)N([C@H](C)CO)C[C@H](C)[C@@H](CN(C)S(C)(=O)=O)OCCCC[C@@H](C)O3)cc1
  18.8	15.6
C[C@@H]1CCCCO[C@@H](CN(C)Cc2ccc(Cl)c(Cl)c2)[C@@H](C)CN([C@H](C)CO)C(=O)c2cc(NC(=O)Cc3ccccc3)ccc2O1
  u	x
CCCNC(=O)C[C@H]1CC[C@@H]2[C@@H](COc3ccc(NC(=O)c4cccc(C(F)(F)F)c4)cc3C(=O)N2C)O1
  u	x
COc1ccc(CN(C)C[C@@H]2Oc3ccc(NS(=O)(=O)c4cn(C)cn4)cc3C(=O)N([C@@H](C)CO)C[C@@H]2C)cc1
  3.6	-8.0
COC(=O)C[C@H]1C[C@@H]2c3cc(NC(=O)NC4CCCCC4)ccc3O[C@@H]2[C@H](CO)O1
  12.2	21.7
CNC[C@@H]1Oc2ccc(NC(=O)Nc3ccc4c(c3)OCO4)cc2C(=O)N([C@H](C)CO)C[C@H]1C
  8.6	4.3
CN1C(=O)c2cc(NC(=O)C3CCOCC3)ccc2OC[C@@H]2O[C@H](CC(=O)NCCc3ccncc3)CC[C@@H]21
  12.2	0.0
CO[C@@H]1CN(C)C(=O)c2ccc(NC(=O)C3CC3)cc2OC[C@H](C)N(C(=O)c2ccccc2F)C[C@H]1C
  19.1	14.6
CCCNC(=O)C[C@@H]1CC[C@H]2[C@H](COc3ccc(NC(=O)C4CCCC4)cc3C(=O)N2C)O1
  1.3	0.8
CCNC(=O)C[C@H]1CC[C@@H]2[C@H](COC[C@H](O)CN2C(=O)C2CC2)O1
  2.9	4.6
C[C@H](CO)N1C[C@H](C)[C@@H](CN(C)S(=O)(=O)c2cccs2)Oc2ccc(N(C)C)cc2CC1=O
  -1.7	2.5
Cc1noc(C)c1S(=O)(=O)Nc1ccc2c(c1)C(=O)N([C@H](C)CO)C[C@H](C)[C@@H](CN(C)S(=O)(=O)c1ccccc1)O2
  10.4	-0.3
CCCNC(=O)C[C@@H]1CC[C@@H]2[C@@H](COc3ccc(NC(=O)CCC)cc3C(=O)N2C)O1
  -1.4	-3.5
CO[C@H]1CC[C@H]2CCOc3ccc(C#N)cc3C(=O)N(C)[C@@H](C)C(=O)N(C)C[C@H]1O2
  7.9	9.0
COc1ccc(CN(C)C[C@@H]2OCCCC[C@H](C)Oc3ccc(NC(=O)Nc4c(C)noc4C)cc3C(=O)N([C@H](C)CO)C[C@H]2C)cc1
  35.4	19.4
C/C=C/c1cnc2c(c1)C(=O)N([C@@H](C)CO)C[C@@H](C)[C@@H](CN(C)S(=O)(=O)c1ccc(OC)cc1)O2
  20.9	7.1
C[C@@H]1CCCCO[C@H](CN(C)C(=O)Nc2ccc(C(F)(F)F)cc2)[C@H](C)CN([C@@H](C)CO)C(=O)c2cc(NC(=O)C3CCCCC3)ccc2O1
  -0.6	5.9
C[C@@H]1CN([C@H](C)CO)C(=O)c2cc(NS(=O)(=O)c3ccc(Cl)cc3)ccc2O[C@@H](C)CCCCO[C@@H]1CN(C)Cc1ccc(C(F)(F)F)cc1
  u	x
COc1ccc(NC(=O)N2C[C@H](O)COC[C@H]3O[C@H](CC(=O)NC4Cc5ccccc5C4)CC[C@@H]32)cc1
  7.2	0.2
CCCNC(=O)N1C[C@H](C)[C@@H](OC)CN(C)C(=O)c2ccc(NS(=O)(=O)CC(F)(F)F)cc2OC[C@H]1C
  9.4	10.1
C[C@@H]1CN([C@H](C)CO)C(=O)Cc2cc(NS(=O)(=O)c3cn(C)cn3)ccc2O[C@@H]1CN(C)Cc1ccc(C(=O)Nc2ccccc2N)cc1
  -1.1	8.8
C[C@H](CO)N1C[C@H](C)[C@H](CN(C)C(=O)c2ccccc2)OCCCC[C@H](C)Oc2ccc(NC(=O)Nc3cccc4ccccc34)cc2C1=O
  3.1	2.1
C[C@H](O)C#Cc1ccc2c(c1)O[C@H](CN(C)Cc1ccccc1)[C@H](C)CN([C@H](C)CO)S2(=O)=O
  5.0	-1.3
O=C(C[C@H]1CC[C@H]2[C@@H](COC[C@@H](O)CN2Cc2ccc3c(c2)OCO3)O1)N1CCOCC1
  46.2	25.8
C/C=C/c1ccc2c(c1)O[C@H](CN(C)C(=O)c1cccc(F)c1)[C@H](C)CN([C@@H](C)CO)S2(=O)=O
  -11.4	-13.4
C[C@@H]1CN([C@@H](C)CO)C(=O)Cc2cc(NS(C)(=O)=O)ccc2O[C@H]1CN(C)Cc1ccc(Cl)c(Cl)c1
  u	x
O=C(C1CCCC1)N1CCCCN2[C@H](C1)[C@@H](c1ccc(C#CC3CC3)cc1)[C@@H]2CO
  -25.6	-29.6
COc1ccc(S(=O)(=O)N2CCCCN3[C@@H](CO)[C@H](c4ccc(C#CC(C)C)cc4)[C@@H]3C2)cc1
  u	x

Molecules shown so far with two or more sulfur atoms:
Values in the order – Vaccinia inh	Vaccinia inh Venus
Cc1noc(C)c1S(=O)(=O)Nc1ccc2c(c1)C(=O)N([C@H](C)CO)C[C@H](C)[C@@H](CN(C)S(=O)(=O)c1ccc(Cl)cc1)OCCCC[C@H](C)O2
  u	x
C[C@@H]1CN([C@H](C)CO)C(=O)c2cc(NS(=O)(=O)c3cccs3)ccc2O[C@@H]1CN(C)Cc1ccc2c(c1)OCO2
  15.7	9.5
C[C@@H]1CN([C@H](C)CO)C(=O)c2cc(NS(=O)(=O)c3cccs3)ccc2O[C@@H]1CN(C)C(=O)Nc1cccc2ccccc12
  18.9	15.4
COc1ccc(S(=O)(=O)Nc2ccc3c(c2)C(=O)N([C@H](C)CO)C[C@H](C)[C@@H](CN(C)S(C)(=O)=O)OCCCC[C@@H](C)O3)cc1
  18.8	15.6
C[C@H](CO)N1C[C@H](C)[C@@H](CN(C)S(=O)(=O)c2cccs2)Oc2ccc(N(C)C)cc2CC1=O
  -1.7	2.5
Cc1noc(C)c1S(=O)(=O)Nc1ccc2c(c1)C(=O)N([C@H](C)CO)C[C@H](C)[C@@H](CN(C)S(=O)(=O)c1ccccc1)O2
  10.4	-0.3

Following part.
Values in the order – Vaccinia inh	Vaccinia inh Venus
C[C@H](CO)N1C[C@H](C)[C@H](CN(C)C(=O)Nc2ccc3c(c2)OCO3)Oc2ncccc2C1=O
  15.4	6.4
C[C@@H]1CCCCO[C@H](CN(C)C(=O)NC2CCCCC2)[C@H](C)CN([C@H](C)CO)C(=O)c2cc(NC(=O)c3ccncc3)ccc2O1
  -5.8	-0.6
C[C@@H]1CN([C@@H](C)CO)C(=O)c2cc(NC(=O)c3ccncc3)ccc2O[C@@H](C)CCCCO[C@H]1CN(C)C(=O)Nc1ccc(C(F)(F)F)cc1
  -26.8	-13.5
COc1ccc(-c2cnc3c(c2)C(=O)N([C@H](C)CO)C[C@@H](C)[C@@H](CN(C)Cc2ccccc2)O3)cc1
  -7.4	-6.9
C[C@H]1CN([C@@H](C)CO)S(=O)(=O)c2ccc(C#CCN(C)C)cc2O[C@@H]1CN(C)Cc1ccccc1
  u	x
CCc1cnc(N2[C@H](C#N)[C@@H](c3ccc(C4=CCCCC4)cc3)[C@H]2CO)s1
  2.3	5.8
C/C=C/c1cnc2c(c1)C(=O)N([C@H](C)CO)C[C@@H](C)[C@H](CN(C)C(=O)Nc1ccc(OC)cc1)O2
  15.8	19.6
OC[C@@H]1[C@@H](c2ccc(-c3cccnc3)cc2)[C@@H]2CN(CC3CC3)CCCCN12
  8.6	8.3
COc1ccc2c3c([nH]c2c1)[C@@H](CO)N(C)CC31CCN(C(=O)c2ccccc2F)CC1
  -11.7	3.3
COc1cccc(NC(=O)N2CC[C@@H]3[C@H]2c2cc(-c4cccc(OC)c4)ccc2N(C)[C@H]3CO)c1
  u	x
COc1cccc(-c2ccc3c(c2)[C@H]2[C@H](CCN2C(=O)c2ccc(F)cc2)[C@@H](CO)N3)c1
  u	x
Cc1ccc(S(=O)(=O)NCC[C@@H]2CC[C@H](NC(=O)CC3CC3)[C@@H](CO)O2)cc1
  1.7	18.4
OC[C@H]1CC[C@@H]2O[C@H](CCc3ccc(C#Cc4ccccc4)cc3)[C@@H](n3cc(-c4ccccc4)nn3)C[C@@H]2O1
  -0.9	-4.0

Source: PubChem (Broad Institute)
